Six1-Eya2 inh = blocks human Six1 binding to Eya2; AlphaScreen GST-Six1/His-Eya2 binding, biochemical; hits give low values; control for the full effect not named in the record; activity change, % (concentration not given with the values); 360,000 tested, 0.56% active; AID 651725; in the data active = activity change below about -65%; inconclusive = about -30% to -65%; inactive = above about -30%; also: % is scaled to controls: 0 for no effect and ±100 for the full control effect
Target sequence (O00167 whole entry, looked up): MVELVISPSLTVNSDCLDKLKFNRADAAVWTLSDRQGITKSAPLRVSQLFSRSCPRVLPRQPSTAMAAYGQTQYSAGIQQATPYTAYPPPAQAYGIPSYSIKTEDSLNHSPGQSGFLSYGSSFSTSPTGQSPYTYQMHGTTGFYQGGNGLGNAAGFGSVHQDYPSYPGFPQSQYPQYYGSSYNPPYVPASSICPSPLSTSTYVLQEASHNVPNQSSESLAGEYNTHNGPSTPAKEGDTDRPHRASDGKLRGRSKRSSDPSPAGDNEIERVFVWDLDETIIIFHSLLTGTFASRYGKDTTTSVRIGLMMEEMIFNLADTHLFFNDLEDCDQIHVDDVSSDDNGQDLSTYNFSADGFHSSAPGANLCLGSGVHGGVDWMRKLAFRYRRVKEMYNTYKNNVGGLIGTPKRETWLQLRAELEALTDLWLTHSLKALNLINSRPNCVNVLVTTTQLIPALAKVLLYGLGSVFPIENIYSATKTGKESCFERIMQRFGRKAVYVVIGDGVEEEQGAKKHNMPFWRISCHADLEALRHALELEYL
Target sequence (Q15475 whole entry, looked up): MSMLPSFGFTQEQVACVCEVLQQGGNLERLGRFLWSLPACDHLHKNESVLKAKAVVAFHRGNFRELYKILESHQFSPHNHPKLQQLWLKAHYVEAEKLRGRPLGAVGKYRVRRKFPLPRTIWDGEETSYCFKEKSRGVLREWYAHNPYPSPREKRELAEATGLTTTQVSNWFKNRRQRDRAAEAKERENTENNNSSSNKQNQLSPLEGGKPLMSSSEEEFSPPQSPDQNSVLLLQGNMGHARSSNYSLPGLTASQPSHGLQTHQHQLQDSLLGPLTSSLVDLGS
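Homogeneous AlphaScreen proximity assay pairing GST-Six1 with His-tagged Eya2 (added as 5X mix: 250 nM and 500 nM) in 50 mM Tris pH 8.0, 300 mM NaCl, 1 mM TCEP. Glutathione donor and nickel acceptor beads; 1 h, 37 °C, dark.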
CtBP-E1A inh = CtBP/E1A binding inhibition; AlphaScreen GST-E1A/His-CtBP binding, 1536-well; hits give low values; control for the full effect not named in the record; activity change, % (test concentration not listed); 340,000 tested, 0.49% active; AID 651724; in the data active means activity change below about -65%; inconclusive means about -30% to -65%; inactive means above about -30%; also: % is scaled to controls: 0 for no effect and ±100 for the full control effect; compound concentration not given in the record
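Steps: dispense buffer (Tris pH 8.0, NaCl 300 mM, TCEP 1 mM, BSA, Tween 20); add 5X protein mix (GST-E1A, His-CtBP, 125 nM each); pin 23 nL compound; 2 h at 37 °C, dark; add 5X beads (50 ug/mL); 1 h; read.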
D2 PAM = human D2 receptor positive allosteric modulation; 360,000 tested, 0.23% active; P14416; AID 624464; DiscoveRx D2 beta-arrestin cells, luminescence, 90 min; 100% = 57 uM dopamine signal; potentiation, % (concentration not given with the values); active = potentiation of 50% or more; inconclusive = 30% to 50%; inactive = 30% or less;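 also: compound concentration not given in the record; tested on top of an EC20 dose of dopamine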
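D2 cells co-treated with compound plus 50 nM dopamine (EC20) for 90 min at 37 deg C to detect potentiation. Beta-arrestin recruitment was read as enzyme-fragment luminescence after 1 h at ambient temperature. Full response was set by 57 uM dopamine.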
D2 ag = agonists of human D2 dopamine receptor (beta-arrestin); P14416; DiscoveRx PathHunter D2 beta-arrestin, luminescence, 90 min; 100% = 57 uM dopamine signal; activation, % (concentration not given with the values); 360,000 tested, 0.084% active; in the data active = activation above about 40%; inconclusive = about 15% to 40%; inactive = below about 15%; also: compound concentration not given in the record; the text of the record calls up to 30% inactive
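DiscoveRx PathHunter D2 beta-arrestin cells (2,100/well) attached overnight, then compound-stimulated 90 min at 37 C in HBSS/10 mM HEPES/0.1% Tween-20 buffer; beta-galactosidase complementation read by luminescence after 1 h at ambient temperature. Dopamine 57 uM final (EC100) as control.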
gsp agonist = agonists of gsp mutant (McCune-Albright syndrome) | Potency, µM (titrated, usually from 76.9 µM), for the others: at the highest dose activation (cAMP increase), usual class: activators | AID 624287 | gsp mutant cells, cAMP HTRF, 30 min; control for the full effect not named in the record | 340,000 tested, 0.13% active; active = well fitted activation curve with a large enough effect; inconclusive = small, poorly fitted or top-dose-only effect, or another doubt; inactive = no such curve, though single readings can be large or run the other way; cell line not stated here;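 also: phosphodiesterase inhibitor Ro 20-1724 added with compounds to block cAMP breakdown; potency is read from the fitted curve at half-maximal effect; nearly all actives have a fitted effect of over 60% in size; about a fifth of the inactives were tested at one dose only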
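Cells in DMEM/10% FBS with G418 were pretreated with compounds in DMSO plus […] (300 uM stock) for 30 min at 37C. cAMP was measured by HTRF (cAMP-d2 plus anti-cAMP antibody-K) after 30 min at room temperature.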
gsp antag = antagonizes gsp, the McCune-Albright syndrome mutation; gsp-mutant cells, cAMP HTRF, 30 min; control for the full effect not named in the record; Potency, µM (doses to about 76.9 µM), for inactives: at the highest dose activity change, negative = inhibition, actives largely listed as inhibitors; 340,000 tested, 0.4% active; active = falling curve of any shape with a large fitted effect; inconclusive = falling curve, mostly with a smaller effect; inactive = flat or rising curve; cell line not stated here;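 also: intracellular cAMP measured with PDE inhibitor Ro 20-1724 present during compound exposure; potency is read from the fitted curve at half-maximal effect; % is scaled to controls: 0 for no effect and ±100 for the full control effect; nearly all actives have a fitted effect of over 65% in size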
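Cells in G418 medium, seeded 16-24 h, 37C; buffer exchange to DPBS + 1 mM CaCl2, 0.5 mM MgCl2, 0.05% BSA; cpds in DMSO + […] (300 uM stock), 30 min 37C; HTRF cAMP detection.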
An asterisk follows results filed as active; [ ] = remark or other dose.

`O=C(C(Cc1ccccc1)n1cccc1)N1CCN(c2ncccn2)CC1` (configuration not stated) gave Six1-Eya2 inh -7, CtBP-E1A inh -1, D2 PAM -2, D2 ag 2.6, gsp agonist -61%[inhibitor] and gsp antag -6%.
CCN(CC)CCCN1CC(=O)N2[C@@H](Cc3c([nH]c4ccccc34)C2(C)C)C1=O was read as Six1-Eya2 inh -1, CtBP-E1A inh -3, D2 PAM -11, D2 ag 5.9, gsp agonist -24% and gsp antag 9%.
Cc1ccc(C)c2nc3sc(C(=O)N4CCOCC4)c(N)c3cc12 was read as Six1-Eya2 inh 4, CtBP-E1A inh 6, D2 PAM -3, D2 ag 2.3, gsp agonist inconclusive and gsp antag 10%.
`O=C(NC(Cc1c[nH]c2ccccc12)C(=O)N/N=C/c1ccc(Br)cc1)c1cccs1` (configuration not stated) gave Six1-Eya2 inh -13, CtBP-E1A inh -5, D2 PAM 4, D2 ag 5.9 and gsp agonist -5%[15.4 µM].
CC1(C(=O)Nc2ccc(Cl)c(Cl)c2)CCN1C(=O)CC(c1ccccc1)c1ccccc1 (configuration not stated) was read as Six1-Eya2 inh 4, CtBP-E1A inh 6, D2 PAM -10 and D2 ag -3.4.
For O=C(N/N=C/c1ccc(N2CCOCC2)cc1)c1ccccn1 the results were Six1-Eya2 inh -7, CtBP-E1A inh -6, D2 PAM 0, D2 ag 7.1, gsp agonist -22% and gsp antag 8%.
Screening CC(C)CCn1c(Sc2nc3ccccc3o2)nc2c1c(=O)[nH]c(=O)n2C returned Six1-Eya2 inh -1, CtBP-E1A inh 0, D2 PAM 1, D2 ag -1.4, gsp agonist inconclusive and gsp antag 18%.
`Cc1cccc(NC(=O)c2ccccc2NC(=O)c2ccco2)c1` gave Six1-Eya2 inh 1, CtBP-E1A inh 4, D2 PAM -9, D2 ag -1.3, gsp agonist -7% and gsp antag -8%.
`CCCN1CN=C(NS(=O)(=O)c2ccc(C)cc2)NC1` gave Six1-Eya2 inh 6, CtBP-E1A inh -1, D2 PAM 0, D2 ag 2.9, gsp agonist -30%[inhibitor] and gsp antag 4%.
Screening CCOC(=O)C1=C(C)N=c2s/c(=C/c3cccc([N+](=O)[O-])c3O)c(=O)n2C1c1ccccc1 (configuration not stated) returned Six1-Eya2 inh -71*, CtBP-E1A inh -80*, D2 PAM -8, D2 ag -1.3, gsp agonist -35%[inhibitor] and gsp antag -9%.
Screening COc1ccc(S(=O)(=O)NCC(=O)NCc2cc(=O)n(C)c(=O)n2C)cc1C returned Six1-Eya2 inh 2, CtBP-E1A inh 5, D2 PAM 1, D2 ag 2.0, gsp agonist 2% and gsp antag 13%.
CCn1c(SCCOc2ccc(Cl)cc2)nnc1-c1cccs1 was read as Six1-Eya2 inh -10, CtBP-E1A inh -15, D2 PAM -6, D2 ag 1.8, gsp agonist -18% and gsp antag inconclusive.
Cc1ccn2cc(C(=O)Nc3cccc(C(=O)NC4CC4)c3)nc2c1 was read as Six1-Eya2 inh -9, CtBP-E1A inh -9, D2 PAM 2, D2 ag 0.4, gsp agonist 1%[15.4 µM] and gsp antag -4%.
CC1=CC(=NOC(=O)/C=C/c2ccccc2)C=C(C)C1=O was read as Six1-Eya2 inh -10, CtBP-E1A inh -13, D2 PAM 28, D2 ag 6.8, gsp agonist 13% and gsp antag -9%.
`Cc1ccc(NC(=O)C(C)OC(=O)CSc2ccccc2)cc1` (configuration not stated) gave Six1-Eya2 inh 20, CtBP-E1A inh -2, D2 PAM -10, D2 ag -1.4, gsp agonist -4%[15.4 µM] and gsp antag 4%.
For COC(=O)[C@@H]1C[C@@]2(O)[C@H](O)[C@H](O)[C@H](O)C[C@H]2N1Cc1ccc(C(C)(C)C)cc1 the results were Six1-Eya2 inh 2, CtBP-E1A inh 8, D2 PAM -1, D2 ag -1.1 and gsp antag 14%.
COc1ccc2c(c1OC)C(=O)OC2Nc1ncc(Br)cc1Br (configuration not stated) was read as Six1-Eya2 inh 3, CtBP-E1A inh 4, D2 PAM 6, D2 ag 1.8, gsp agonist 8% and gsp antag 3%.
For CCCCn1nc(C(=O)NNC(=O)c2ccncc2)c2ccccc2c1=O the results were Six1-Eya2 inh 1, CtBP-E1A inh -4, D2 PAM 3, D2 ag -8.0, gsp agonist -18%[15.4 µM] and gsp antag 14%.
CCOC(=O)C1(Cc2cccc(OC)c2)CCN(C/C=C/c2ccc(OC)cc2)CC1 was read as Six1-Eya2 inh -16, CtBP-E1A inh -2, D2 PAM -9, D2 ag 2.8, gsp agonist -1%[15.4 µM] and gsp antag -15%.
`O=C(O)C1C2C=CC3(O2)C1C(=O)N1c2ccccc2COC13` (configuration not stated) gave Six1-Eya2 inh 0, CtBP-E1A inh -3, D2 PAM -7, D2 ag -1.5, gsp agonist -9% and gsp antag 6%.
Screening CCS(=O)(=O)N1CCC(C(=O)NCc2cccs2)CC1 returned Six1-Eya2 inh -1, CtBP-E1A inh 10, D2 PAM -1, D2 ag 0.5, gsp agonist -2% and gsp antag 5%.
FC(F)(F)c1cccc(NC(=S)Nc2cccc(NC(=S)Nc3cccc(C(F)(F)F)c3)n2)c1 was read as Six1-Eya2 inh -2, CtBP-E1A inh -9, D2 PAM -1, D2 ag 3.8, gsp agonist 9% and gsp antag -11%.
Screening COc1ccc(/C=C/C(=O)N2CCN(C)CC2)cc1OC returned Six1-Eya2 inh -3, D2 PAM -27, D2 ag -5.6, gsp agonist 28% and gsp antag 2%.
Screening CCCNC(=O)c1cc2nc(-c3ccccc3)cc(C(F)(F)F)n2n1 returned Six1-Eya2 inh 3, CtBP-E1A inh 8, D2 PAM -2, D2 ag -2.1, gsp agonist 0% and gsp antag inconclusive.
For CCC(=O)NC(=S)Nc1cccc(NC(=O)c2ccc(Cl)cc2Cl)c1 the results were Six1-Eya2 inh -3, CtBP-E1A inh 0, D2 PAM -6, D2 ag -1.8, gsp agonist 2% and gsp antag -2%[15.4 µM].
For COCCN(Cc1ccc(F)cc1)C(=O)c1cc2ccccc2oc1=O the results were Six1-Eya2 inh 3, CtBP-E1A inh 6, D2 PAM 3, D2 ag -5.8, gsp agonist -7% and gsp antag -1%.
For O=C(CSc1nnc(CNC(=O)c2cccs2)o1)Nc1ccccc1C(F)(F)F the results were Six1-Eya2 inh 3, CtBP-E1A inh 2, D2 PAM -5, D2 ag -0.8, gsp agonist 22% and gsp antag 2%.
For CCN(CCCNC(=O)COc1cc(=O)n(C)c2ccccc12)c1cccc(C)c1 the results were Six1-Eya2 inh -23, CtBP-E1A inh -17, D2 PAM -8, D2 ag 0.7, gsp agonist 12% and gsp antag -13%.
CC(=O)COC(=O)C1=NN(c2ccccc2)C(=O)CC1 was read as Six1-Eya2 inh 15, CtBP-E1A inh 0, D2 PAM -3, D2 ag -1.2, gsp agonist 16%[15.4 µM] and gsp antag -11%.
Screening O=C(NCc1ccccc1C(F)(F)F)C1CC(c2ccccc2[N+](=O)[O-])=NO1 (configuration not stated) returned Six1-Eya2 inh -7, CtBP-E1A inh -2, D2 PAM 3, D2 ag 3.5 and gsp antag -2%.
O=C(Nc1nc(-c2ccc(F)c(F)c2)cs1)c1cc([N+](=O)[O-])ccc1N1CCOCC1 was read as Six1-Eya2 inh -7, CtBP-E1A inh -12, D2 PAM -27, D2 ag -5.4, gsp agonist -9% and gsp antag -2%.
Screening O=S(=O)(O)c1cc(O)c2cc(Nc3ccccc3)ccc2c1 returned Six1-Eya2 inh -28, CtBP-E1A inh 6, D2 PAM 11, D2 ag 12, gsp agonist -4%[15.4 µM] and gsp antag 0%.
`C/C(CC(=O)Nc1ccc(Cl)cc1Cl)=N\NC(=O)c1cnccn1` gave Six1-Eya2 inh -27, CtBP-E1A inh inconclusive, D2 PAM -1, D2 ag 10, gsp agonist -16%[15.4 µM] and gsp antag -1%.
Screening Cc1sc2ncnc(SCC(=O)Nc3ccc(CN4CCCC4)cc3)c2c1C returned Six1-Eya2 inh -8, CtBP-E1A inh -12, D2 PAM -4, D2 ag -1.3, gsp agonist 24% and gsp antag 7%.
`CN(CC(=O)NC(=O)NC1CCCCC1)CC(=O)Nc1ccccc1C(F)(F)F` gave Six1-Eya2 inh -9, CtBP-E1A inh -2, D2 PAM -6, D2 ag 0.7 and gsp agonist 28%.
`COCCNC(=O)CCC1CCN(Cc2cccc(Oc3ccccc3)c2)CC1` gave Six1-Eya2 inh 10, CtBP-E1A inh -10, D2 PAM -14, D2 ag -4.0, gsp agonist 8%[15.4 µM] and gsp antag 5%.
CC(C)N1C(=O)N(c2cccc(Cl)c2)C(C)(O)CC1(C)C (configuration not stated) was read as Six1-Eya2 inh -4, CtBP-E1A inh 8, D2 PAM -1, D2 ag -3.4, gsp agonist -24% and gsp antag 2%.
`COc1ccc(C(O)c2nc(-c3cccs3)cs2)cc1` (configuration not stated) gave Six1-Eya2 inh 0, CtBP-E1A inh 2, D2 PAM -12 and D2 ag -5.7.
`CSc1nccc(N/N=C/c2ccccc2)n1` gave Six1-Eya2 inh 2, CtBP-E1A inh 0, D2 PAM -6, D2 ag -4.8, gsp agonist -53%[inhibitor] and gsp antag 11%.
Screening NS(=O)(=O)c1ccc(NC(=O)CN2CCCCC2)cc1 returned Six1-Eya2 inh 3, CtBP-E1A inh 6, D2 PAM 3, D2 ag 0.5, gsp agonist -23% and gsp antag 4%.
Cc1ccc(S(=O)(=O)N(C)C)cc1NC(=O)CSc1nnc(C2CC2)n1C1CC1 was read as Six1-Eya2 inh 5, CtBP-E1A inh -9, D2 PAM -5, D2 ag -0.9, gsp agonist 10% and gsp antag 2%.
Screening CN1CCC(C(=O)C(=O)O)C1=O (configuration not stated) returned Six1-Eya2 inh 16, CtBP-E1A inh -24, D2 PAM -14, D2 ag -3.7, gsp agonist inconclusive and gsp antag -12%.
Screening CC(=O)N(Cc1ccco1)C1(C(=O)NC2CCCCC2)CCCCC1 returned Six1-Eya2 inh 4, CtBP-E1A inh 2, D2 PAM -6, D2 ag -2.8, gsp agonist 8% and gsp antag 1%.

Among those listed so far, these have a furan ring, fused or not.
`Cc1cccc(NC(=O)c2ccccc2NC(=O)c2ccco2)c1` gave Six1-Eya2 inh 1, CtBP-E1A inh 4, D2 PAM -9, D2 ag -1.3, gsp agonist -7% and gsp antag -8%.
Screening CC(=O)N(Cc1ccco1)C1(C(=O)NC2CCCCC2)CCCCC1 returned Six1-Eya2 inh 4, CtBP-E1A inh 2, D2 PAM -6, D2 ag -2.8, gsp agonist 8% and gsp antag 1%.
